# RGS16-Gao HTS: modulates binding between human RGS16 and Galphao | O15492+P09471 | bead-based flow cytometry RGS16-Galphao binding, fluorescence; actives lie on both sides | binding response (% of control), % at 10 µM | 220,000 compounds, 0.38% hits;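 active = below 25% or above 175%, edge rows of some plates excepted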;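 note: Galphao activated by GDP with aluminum fluoride before binding; 100% = wells without compound and 0% = beads without RGS; some results beyond the cut were filed as inactive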
# HSV replic up: increases HSV replication in cells. HSV replication augmentation in cells, fold increase. maximum fold increase. 220,000 compounds, 0.005% hits. AID 1956;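 active = peak rise of 1.5-fold or more in the series; tested in PC3 cells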;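 note: first round at 10 µM; read as green reporter fluorescence; hits show the peak of a series up to 25 µM; 1 = signal of infected wells without compound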
# GALR2 agonist: agonists of human galanin receptor 2 (GALR2); O43603; GALR2-expressing cells, agonist activation read-out; activation, %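 (tested at 5 µM)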; 140,000 compounds, 0.48% hits;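 active = above mean plus 3 SD of all compounds, about 5% in these data, not always enough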;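 note: 0% = vehicle buffer wells and 100% = reference agonist at full effect; tested in CHO reporter cells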
# Insulin prom inh: TRM-6 insulin promoter activity inhibition; inhibition, % at 2 µM; 130,000 compounds, 0.9% hits; TRM-6 cells (human fetal islet line), insulin promoter-eGFP reporter, imaging; reporter expression induced with tamoxifen;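 active = inhibition above the mean plus 3 SD, with well images judged a real hit on visual review, cut at about 60% in these data, passing the limit was not always enough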
# PKD1 kinase inh: blocks activity of human protein kinase D1; Q15139; PKD1 kinase fluorescence polarization assay; inhibition, %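 (about 10 µM by stock and volumes)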; 200,000 compounds, 0.056% hits; AID 797;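 active = inhibition of 50% or more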;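 note: controls were vehicle for no effect and a reference inhibitor for full effect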
# Target sequence (Q15139 whole entry, looked up): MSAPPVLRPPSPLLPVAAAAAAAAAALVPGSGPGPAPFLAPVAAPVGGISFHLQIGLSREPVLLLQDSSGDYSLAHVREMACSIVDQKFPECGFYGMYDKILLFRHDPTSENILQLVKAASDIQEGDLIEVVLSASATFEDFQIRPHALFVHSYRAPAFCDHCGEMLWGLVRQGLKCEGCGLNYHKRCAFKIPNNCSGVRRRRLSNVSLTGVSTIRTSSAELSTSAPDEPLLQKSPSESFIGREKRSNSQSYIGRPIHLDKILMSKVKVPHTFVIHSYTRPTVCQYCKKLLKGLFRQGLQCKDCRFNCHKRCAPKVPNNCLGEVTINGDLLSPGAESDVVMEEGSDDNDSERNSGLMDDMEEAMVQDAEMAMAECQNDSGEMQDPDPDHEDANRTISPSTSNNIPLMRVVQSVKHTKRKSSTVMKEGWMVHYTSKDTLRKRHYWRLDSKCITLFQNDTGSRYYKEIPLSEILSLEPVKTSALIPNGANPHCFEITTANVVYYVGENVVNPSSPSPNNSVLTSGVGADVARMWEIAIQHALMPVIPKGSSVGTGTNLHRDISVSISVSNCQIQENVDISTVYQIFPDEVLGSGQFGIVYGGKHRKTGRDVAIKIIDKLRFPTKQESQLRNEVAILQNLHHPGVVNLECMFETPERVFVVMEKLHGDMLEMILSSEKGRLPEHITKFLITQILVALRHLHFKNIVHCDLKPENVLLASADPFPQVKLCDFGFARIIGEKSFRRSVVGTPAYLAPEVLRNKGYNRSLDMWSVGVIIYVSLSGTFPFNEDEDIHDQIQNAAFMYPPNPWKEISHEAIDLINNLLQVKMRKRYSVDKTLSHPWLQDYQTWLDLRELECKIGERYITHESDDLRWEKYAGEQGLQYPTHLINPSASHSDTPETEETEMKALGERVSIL
# Insulin prom inh cell count: also measured in Insulin prom inh; calls as there; normalized cell count, %; measured here: cell count, toxicity; reference of the scale not given here;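 cells exposed to compound for 48 h; stained nuclei by imaging scaled within each plate; lower means fewer cells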
# HSV replic up primary fold: also measured in HSV replic up; calls as there; fold increase; compound at 10 µM; measured here: primary screen fold increase 10 uM; tested in PC3 cells;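 GFP signal in the first replicate; 1 = infected wells without compound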
# * hit, by the source's call; i = inactive; x = not tested or not shown.
SMILES,RGS16-Gao HTS,HSV replic up,HSV replic up primary fold,GALR2 agonist,Insulin prom inh,Insulin prom inh cell count,PKD1 kinase inh
CCN1CCN(C(=O)CN(CC)S(=O)(=O)c2ccc(Cl)cc2)CC1,101,i,0.97,-0.4,-8,105,-3
COc1c(N)c2ccccc2[nH]c1=O,100,x,x,-0.5,2,149,-12
O=C(Nc1nc(-c2ccc(S(=O)(=O)N3CCCC3)cc2)cs1)C1COc2ccccc2O1 (stereo not drawn),97,i,0.94,-2.8,31,131,-1
Cc1ccc(CN=C2NC(=O)C(CC(=O)NCCc3ccccc3)S2)cc1 (stereo not drawn),110,i,1,x,55,164,1
COc1cc(C(c2c(C)[nH][nH]c2=O)c2c(C)[nH][nH]c2=O)ccc1OCc1ccc([N+](=O)[O-])cc1,91,i,0.69,-1.7,x,x,12
O=C(COC(=O)c1c2ccccc2cc2ccccc12)Nc1ncc(C(F)(F)F)cc1Cl,79,i,0.8,1.1,42,88,-10
Cc1ccc(S(=O)(=O)N(C)C)cc1NC(=O)Nc1ccccc1F,103,i,0.84,x,x,x,x
Cc1ccc(-c2ccc(=O)n(CC(=O)Nc3cccc(C(=O)N4CCN(C)CC4)c3)n2)cc1,98,i,0.92,-0.9,50,68,-2
CCN(CC)C(=O)CN(C)S(=O)(=O)c1cccc2nsnc12,105,i,0.53,-0.5,29,117,-5
C=CCN1c2ccccc2[C@]23C[C@@H](C(=O)OC)N(C(C)=O)C2=NC(C(=O)OC)=C(C(=O)OC)[C@H]13,98,i,0.77,x,x,x,x
CC(=O)NN1C(=O)/C(=C\c2ccc(O)cc2)SC1=S,100,i,1.2,x,x,x,4
CCN(CC(=O)Nc1ccc(C)c(F)c1)CC(=O)NC(C)C,103,i,0.97,x,x,x,1
Cc1cccc2sc(N(CCCN(C)C)C(=O)CCc3ccccc3)nc12,103,i,0.67,0.4,x,x,16
Cc1nc(SCC(=O)N(C)Cc2ccco2)c2c(C)c(C)sc2n1,95,i,0.85,11,x,x,0
Nn1c(SCc2c(F)cccc2F)nnc1-c1ccccn1,101,i,0.97,x,x,x,x
Cc1ccc(CNC(=O)CSc2c3c(nc4cc(Cl)ccc24)CCCC3)o1,101,i,1.1,-2.6,50,121,-8
OC(CNCC1CCCO1)Cn1c2ccc(Br)cc2c2cc(Br)ccc21 (stereo not drawn),112,i,0.84,-0.6,19,51,-4
Cc1cc2c(cc1C)CSC(c1ccccc1OC(=O)C(C)(C)C)SC2,119,i,0.92,-0.4,-36,117,-5
Cc1nc2ccccc2n1CC(O)COC1CCCCC1 (stereo not drawn),115,i,0.95,-2.5,67,86,-3
CC1=NC(C#N)=C(C#N)NC(C)(C)C1,97,i,1,x,-21,239,-1
O=C(CSc1nnc2ccccn12)N1CCc2ccccc2C1,104,i,1.1,-0.8,-22,89,-8
CCC(=O)Nc1nnc(-c2ccncc2)s1,110,i,1.3,-1.0,4,93,-7
CCOc1ccc(NC(=O)CN(C)CC(=O)Nc2cc(Cl)ccc2C#N)cc1OCC,21,i,0.96,-1.4,26,119,-3
CC1CC(C)CN(S(=O)(=O)c2cccc(C(=O)OCCN3CCCC3=O)c2)C1 (stereo not drawn),74,i,1,-1.1,-3,104,-7
Nc1ccc(C2CCCc3nonc32)c2nonc12 (stereo not drawn),104,i,0.97,-4.6,-37,85,5

# Quoted at random: two entries already listed
SMILES,RGS16-Gao HTS,HSV replic up,HSV replic up primary fold,GALR2 agonist,Insulin prom inh,Insulin prom inh cell count,PKD1 kinase inh
CCOc1ccc(NC(=O)CN(C)CC(=O)Nc2cc(Cl)ccc2C#N)cc1OCC,21,i,0.96,-1.4,26,119,-3
Cc1ccc(CN=C2NC(=O)C(CC(=O)NCCc3ccccc3)S2)cc1 (stereo not drawn),110,i,1,x,55,164,1

# Looked up above:
# `CCC(=O)Nc1nnc(-c2ccncc2)s1` – RGS16-Gao HTS: 110
# `Nc1ccc(C2CCCc3nonc32)c2nonc12` (stereo not drawn) – PKD1 kinase inh: 5
# `Cc1nc2ccccc2n1CC(O)COC1CCCCC1` (stereo not drawn) – HSV replic up primary fold: 0.95
# `O=C(COC(=O)c1c2ccccc2cc2ccccc12)Nc1ncc(C(F)(F)F)cc1Cl` – PKD1 kinase inh: -10
# `Cc1ccc(CN=C2NC(=O)C(CC(=O)NCCc3ccccc3)S2)cc1` (stereo not drawn) – Insulin prom inh: 55
# `CC1=NC(C#N)=C(C#N)NC(C)(C)C1` – Insulin prom inh cell count: 239

# (continued)
SMILES,RGS16-Gao HTS,HSV replic up,HSV replic up primary fold,GALR2 agonist,Insulin prom inh,Insulin prom inh cell count,PKD1 kinase inh
CN(C)C(=O)C#Cc1ccccc1,106,i,1.1,x,x,x,x
Cc1ccc(C(=O)NCC(=O)NCC(=O)OCC(=O)c2ccc([N+](=O)[O-])cc2)cc1,79,i,1,-2.1,6,127,0
Cc1ccc(CCc2nnc(SCC(=O)Nc3ccccc3Cl)n2-c2ccccc2)o1,96,i,1.1,-0.3,x,x,-6
Cc1ccc(C)c(NC(=O)c2ccc(N(C)S(C)(=O)=O)cc2)c1,112,i,0.94,-1.5,27,102,-5
COc1cccc(OC)c1C(=O)NNC(=O)c1ccc(F)cc1,106,i,0.79,x,x,x,-1
Cc1ccc(OCCN2C(=O)c3ccccc3C2=O)c([N+](=O)[O-])c1,107,i,0.91,1.4,-8,132,-5
Cc1cc(C(=O)CSc2nc(N)cc(N)n2)c(C)n1-c1cccc(C(F)(F)F)c1,107,i,1.1,0.7,8,160,-5
NCCCC[C@H](NC(=O)C1CCNCC1)c1nnc([C@@H](N)CO)o1,110,i,0.93,x,x,x,-11
CC1Cc2ccccc2N1C(=O)CNc1ccccc1N1CCCCC1 (stereo not drawn),102,i,1.1,x,24,89,0
O=C(CSc1nnc(-c2ccoc2)o1)N1CCOCC1,110,i,1.1,-3.8,9,105,-5
Cc1ccc(CN=c2c([N+](=O)[O-])nn(-c3cccc(Cl)c3)n2O)cc1,103,i,0.94,x,x,x,-1
CCOC(=O)c1cnn(-c2ccccc2)c1NC(=O)c1ccccc1,124,i,0.97,-0.1,18,110,-6
COC(=O)c1sc(NC(=O)CSc2nncs2)c(C(=O)OC)c1C,95,i,0.96,-0.1,31,15,3
Cc1cc(=O)[nH]c(SCC(=O)c2c(N)n(C)c(=O)n(C)c2=O)n1,117,i,0.83,-1.9,27,116,4
N#Cc1ccc(C(=O)NC2CCCc3ccccc32)cc1 (stereo not drawn),139,i,1.1,x,x,x,-3
O=C(CNC(=O)c1ccccc1C(=O)O)c1ccccc1,109,i,0.82,-0.1,78*,37*,-4
Cn1cnc2cc(OC(=O)c3ccccc3)ccc21,106,i,0.88,2.4,0,129,6
O=C(COc1cccc2ccccc12)N1c2ccccc2CCc2ccccc21,102,i,0.9,0.1,-14,122,0
CC(=O)Nc1ccccc1C(=O)C(=O)Nc1ccc(C(=O)N2CCOCC2)cc1,105,i,1,x,4,77,-2
CCCCNC(=S)NNC(=O)c1ccoc1C,105,i,0.96,-0.8,-8,103,-11
Cc1cc(O)c(-c2cc(O)c(C)cc2O)cc1O,83,i,1.2,x,x,x,x
COc1ccc(CCN(Cc2ccccn2)C(=S)Nc2cccc(SC)c2)cc1OC,99,i,0.83,x,-40,79,-13
Clc1ccc2nncn2n1,81,i,1,x,-25,63,-5
CCOC(=O)C1=C(N)OC2=C(C(=O)CCC2)C1c1ccccc1OC (stereo not drawn),105,i,1.1,x,14,91,-5
O=S(=O)(Nc1ccc2cn[nH]c2c1)c1ccc(Cl)s1,99,i,0.82,x,x,x,-2

# Structures above containing a cyano group:
SMILES,RGS16-Gao HTS,HSV replic up,HSV replic up primary fold,GALR2 agonist,Insulin prom inh,Insulin prom inh cell count,PKD1 kinase inh
CC1=NC(C#N)=C(C#N)NC(C)(C)C1,97,i,1,x,-21,239,-1
CCOc1ccc(NC(=O)CN(C)CC(=O)Nc2cc(Cl)ccc2C#N)cc1OCC,21,i,0.96,-1.4,26,119,-3
N#Cc1ccc(C(=O)NC2CCCc3ccccc32)cc1 (stereo not drawn),139,i,1.1,x,x,x,-3

# Among those listed so far, 2 have a CF3 group:
SMILES,RGS16-Gao HTS,HSV replic up,HSV replic up primary fold,GALR2 agonist,Insulin prom inh,Insulin prom inh cell count,PKD1 kinase inh
O=C(COC(=O)c1c2ccccc2cc2ccccc12)Nc1ncc(C(F)(F)F)cc1Cl,79,i,0.8,1.1,42,88,-10
Cc1cc(C(=O)CSc2nc(N)cc(N)n2)c(C)n1-c1cccc(C(F)(F)F)c1,107,i,1.1,0.7,8,160,-5

# Later entries:
SMILES,RGS16-Gao HTS,HSV replic up,HSV replic up primary fold,GALR2 agonist,Insulin prom inh,Insulin prom inh cell count,PKD1 kinase inh
COc1cc(S(=O)(=O)N(Cc2cccc(OC)c2OC)CC2CCCO2)ccc1-n1cnnn1 (stereo not drawn),100,i,1.1,x,x,x,x
Cc1ccc(C(=O)COC(=O)CNC(=O)Cc2ccccc2)cc1[N+](=O)[O-],103,x,x,-1.5,x,x,0
O=C(O)CSc1nnc(Cn2c(=O)sc3ccccc32)n1-c1cccc(Cl)c1,14,i,0.83,-0.4,x,x,-4
O=c1c2[nH]c3cccc(Cl)c3c2ncn1CC1CCCO1 (stereo not drawn),107,i,1,x,x,x,x
C#CCOCCOCCOCCNc1nc(N2CCN(C(=O)C(Cc3ccc(O)cc3)n3cc(C(N)CC(C)C)nn3)CC2)nc(N2CCN(C(=O)C(Cc3cc4ccccc4[nH]3)n3cc(C(N)C(C)CC)nn3)CC2)n1 (stereo not drawn),91,x,x,x,x,x,-9
CCS(=O)(=O)c1ccc(-c2csc(-c3ccccc3)n2)c(Cl)c1Cl,104,i,0.88,-0.2,5,71,1
Cc1cc(C)n(CC(O)Cn2c3ccccc3c3ccccc32)c(=O)n1 (stereo not drawn),107,i,0.8,-1.2,x,x,1
O=C(CSc1nc2ccccc2[nH]1)N1CCN(C(=O)c2ccco2)CC1,96,i,1,1.1,18,110,8
COc1ccc(CN(CC(=O)NCc2ccccc2)C(=O)c2csnn2)cc1,91,i,1,x,x,x,-1
COc1cc(S(=O)(=O)N(CCc2ccccc2)Cc2cccs2)ccc1-n1cnnn1,104,i,1,-1.7,-56,109,-9
COC(=O)C1=C(N)OC2=C(C(=O)CCC2)C1c1ccccc1OC (stereo not drawn),100,i,0.97,x,x,x,x
CCSc1ncc(/C=N/Nc2ccccc2)n1C,102,i,1.1,-0.8,-7,92,17
Cc1ccc(C)c2nc(SCC(=O)N3CCCc4ccccc43)c(C#N)cc12,94,i,0.89,-2.0,8,131,-14
CCCCN(CCCC)C(=O)CN(C)S(=O)(=O)c1ccc2c(c1)n(C)c(=O)c(=O)n2C,100,i,0.98,-1.6,-284,34,-2
O=C(N/N=C1\CC2CC=CC12)c1ccc(O)cc1 (stereo not drawn),100,i,0.97,x,-407,80,0
C=CCN(CC=C)C(=S)Nc1ccc(OC)c(OC)c1,113,i,0.8,x,x,x,3
COCc1c(C(=O)OCc2nc(N)nc(Nc3ccccc3C)n2)oc2ccccc12,96,i,0.71,-0.2,49,96,-13
C/C(=N/NC(=O)C(O)(c1ccccc1)c1ccccc1)c1ccc([N+](=O)[O-])o1,101,i,1,x,x,x,-3
CC(C(=O)NC1CCCC1)N(Cc1ccc2c(c1)OCO2)C(=O)c1snc(C(N)=O)c1N (stereo not drawn),104,i,0.98,-2.9,x,x,-6
O=C(CNC(=O)c1cccs1)c1ccc(F)cc1,103,i,1.1,-0.2,-53,105,-7
O=C(c1ccc2[nH]c3c(c2c1)CCCC3)N1CCN(c2ccc(F)cc2)CC1,111,i,0.93,0.7,-16,78,-2
CC(=O)O/N=C1\C(=O)N(Cc2ccc(C)cc2)c2ccccc21,18,i,0.9,x,0,122,-3
CCc1nnc(NC(=O)C2=CCN(S(=O)(=O)c3ccccc3)CC2)s1,98,i,1,x,x,x,x
O=C(COc1ccccc1F)NC1CC1,108,i,0.75,0.1,44,132,0
COC(=O)[C@H](C)NC(=O)COc1ccccc1,98,i,0.8,-1.6,x,x,-1

# Other entries
SMILES,RGS16-Gao HTS,HSV replic up,HSV replic up primary fold,GALR2 agonist,Insulin prom inh,Insulin prom inh cell count,PKD1 kinase inh
C=CCSc1nnc(-c2ccc(Cl)cc2Cl)o1,95,x,x,-2.8,5,70,-5
CC(NCc1ccc(-c2ccccc2)cc1)C(O)c1ccccc1 (stereo not drawn),70,i,0.65,0.5,-66,74,1
CS(=O)(=O)N1CC(C(=O)NN)Oc2ccc(Cl)cc21 (stereo not drawn),101,i,0.75,-0.5,x,x,4
N=c1c(-c2nc3ccccc3[nH]2)cc(C(=O)c2ccco2)nn1-c1ccccc1,100,i,0.93,0.5,-14,95,-8
COc1ccc(C)cc1NC(=O)Cn1cnnn1,101,i,0.93,x,x,x,3
C/C(N)=C(/C#N)C(=O)COC(=O)CNC(=O)c1ccc(Cl)cc1Cl,100,i,0.98,x,x,x,0
